Assay outcomes deposited in PubChem BioAssay by several laboratories.
Yeast UUG start = alters start codon recognition fidelity in yeast. S. cerevisiae UUG-firefly luciferase reporter, luminescence/redox ratio. activity score, % at 18.7 µM. 350,000 tested, 0.13% active;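 active means replicate mean at a twofold rise or more, about +100% in these data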;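 further: firefly luciferase made from a UUG start codon reports start codon fidelity; reporter light over untreated wells divided by growth signal over untreated wells; some hits fall short of that in this replicate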
PABP polyA inh = blocks human PABP binding to poly(A) RNA; P11940; fluorescence polarization; 290,000 tested, 1% active; inhibition, % at 35 µM; AID 2014;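 active means 50% or more with normal probe brightness, or confirmed in later tests; inconclusive means above 50% with abnormal brightness, or retests that disagree; inactive means below 50% or failed in later tests; about a fifth of its hits are not listed in these tables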;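 further: calls also rest on retests at 20 µM and on dose response follow-up; controls were probe without protein and protein plus probe with vehicle; some compounds called inactive have numbers as strong as hits; many hits fall short of the cut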
Target sequence (P11940 whole entry, looked up): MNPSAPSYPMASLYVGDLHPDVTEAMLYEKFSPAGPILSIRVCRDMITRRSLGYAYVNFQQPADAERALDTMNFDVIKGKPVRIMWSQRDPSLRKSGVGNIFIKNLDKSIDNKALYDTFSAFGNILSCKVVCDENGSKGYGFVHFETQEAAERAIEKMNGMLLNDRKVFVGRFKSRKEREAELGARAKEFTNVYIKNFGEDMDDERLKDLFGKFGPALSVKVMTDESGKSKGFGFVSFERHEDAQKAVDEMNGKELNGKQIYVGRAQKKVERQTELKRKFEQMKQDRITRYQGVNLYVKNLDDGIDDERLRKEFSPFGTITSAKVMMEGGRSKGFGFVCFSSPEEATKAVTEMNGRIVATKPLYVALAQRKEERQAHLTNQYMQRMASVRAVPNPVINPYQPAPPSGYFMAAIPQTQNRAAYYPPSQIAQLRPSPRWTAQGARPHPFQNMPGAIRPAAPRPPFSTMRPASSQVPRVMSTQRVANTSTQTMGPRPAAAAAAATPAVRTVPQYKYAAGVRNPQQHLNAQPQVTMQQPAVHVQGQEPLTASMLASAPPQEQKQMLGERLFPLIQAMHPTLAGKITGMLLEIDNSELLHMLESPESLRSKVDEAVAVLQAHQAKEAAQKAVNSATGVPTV
eIF4H FP inh = inhibitors of RNA binding by human eIF4H; inhibition, % at 35 µM; eIF4H fluorescence polarization binding assay; Q15056; 290,000 tested, 0.94% active;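 active means 50% or more with normal probe brightness, or confirmed in later tests; inconclusive means above 50% with abnormal brightness, or retests that disagree; inactive means below 50% or failed in later tests; about a fifth of its hits are not listed in these tables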;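 further: calls also rest on retests at 20 µM and on dose response follow-up; 0% = protein and probe with vehicle and 100% = probe without protein; strong numbers were not always called active; many hits fall short of the cut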
Rce1 inhib = yeast Ras-converting enzyme inhibition | yeast membranes, quenched prenylated peptide cleavage fluorescence | 290,000 tested, 0.27% active | calls only | Q03530;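 active means fall in fluorescence gain of 50% or more versus controls, with final raw signal at or below 3038400; inconclusive means same 50% fall but final raw signal above 3038400; inactive means fall in fluorescence gain under 50%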;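 further: plate controls were neutral control wells for no effect and wells lacking membranes for full effect; tested at 10 µM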
CSC inhib = cancer stem cell inhibition; inhibition, % at 7.5 µM; cancer stem cell-like cells viability, luminescence; AID 2717; 300,000 tested, 1.1% active;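 active means mean at 75% or more and at least half the replicates too; inconclusive means mean and replicates disagree; tested in HMLE shEcad cells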;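 further: 0% = median of negative and 100% = median of positive control wells; the first replicate is given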
MT1-MMP act inh = blocks activation of human MT1-MMP | HT1080 RFP-PRO-GFP cells, GFP/RFP ratio fluorescence, overnight; percent of plate control window, DMSO zero | AID 651647 | GFP/RFP ratio change, % at 20 µM | P50281 | 360,000 tested, 0.061% active;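 active means GFP/RFP ratio change of at least 30% with cell ATP level not reduced by more than half and red fluorescence within 50% of control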; further: strong numbers were not always called active
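Assay system – RFP-PRO-GFP reporter HT1080 cells · Compound dosing – single dose of 20 µM compound, 1% DMSO final · Incubation – overnight compound exposure at 37 °C · Measure – GFP/RFP fluorescence ratio · Benchmarks – DMSO wells and RFP-L50D-GFP cells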
HIV Env fusion = blocks HIV Env-driven cell-cell fusion. 360,000 tested, 1.1% active. AID 651610. HeLa-JRFL Env/CEM21 cell fusion, luciferase. inhibition, % at 12.3 µM;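 active means mean replicate inhibition score of at least 50 and every replicate individually at or above 50; inconclusive means only one of the two criteria met; inactive means mean below 50 and not all replicates reaching 50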;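 further: 0% = plate neutral controls and 100% = maraviroc near 300 nM; one replicate is shown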
eIF4H FP inh retest = recorded beside eIF4H FP inh, whose call it bears; inhibition, %; compound at 20 µM; confirmation average;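 mean of two retest wells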
PABP polyA inh retest = also measured in PABP polyA inh; calls as there; inhibition, %; compound at 20 µM; confirmation repeats;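 mean of two retest wells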
MT1-MMP act inh RFP = further read-out of MT1-MMP act inh, marked with its call; RFP signal change, %; measured here: RFP expression control read;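 0 = vehicle wells; hits needed this value within 50% of zero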
An asterisk follows results filed as active; i = inactive; ? = inconclusive; . = not tested or not shown; & = joins results of further samples. An excerpt; rates above refer to the full screens.

SMILES	Yeast UUG start	PABP polyA inh	eIF4H FP inh	Rce1 inhib	CSC inhib	MT1-MMP act inh	MT1-MMP act inh RFP	HIV Env fusion	others
CN1CCc2nc(N)c(C#N)c(-c3ccccc3)c2C1	-21	2	15	i	19	-6	-2	.
c1cc(C2N3CCCN2CC3)ccn1 (stereo not given)	.	15	-3	i	0	3	3	9
O=C1NC(=O)C2(Cc3ccccc3N3CCCC32)C(=O)N1 (stereo not given)	4	15	12	i	-2	-6	3	61*
Cc1ccc(S(=O)(=O)N2CN3CCN(C3)C2)cc1	-13	-12	5	i	-6	-6	3	-53
COc1cc(C(O)CNC(C)C)cc(F)c1OC (stereo not given)	-2	.	.	i	-6	.	.	4
O=C(COc1ccccc1)N1CCN(CC2CC=CCC2)CC1 (stereo not given)	-12	5	3	i	.	2	1	0
COc1ccc(OC)c(-n2c(O)c(C=Nc3c(C)n(C)n(-c4ccccc4)c3=O)c(=O)[nH]c2=O)c1	.	10	-5	i	-10	3	4	20
O=C1/C(=C\c2ccc3c(c2)OCO3)N2CCC1CC2	-19	-9	-6	i	-2	-1	-2	.
COc1ccc(OC(=O)N(C)C[C@@H]2OCc3cnnn3CCCC(=O)N([C@H](C)CO)C[C@H]2C)cc1	-16&8&-11	.	.	.	.	-1	6	8
COC(=O)COc1cc(C)cc2oc(=O)c3c(c12)CCCC3	.	6	-1	i	-7	1	0	.
CCc1ccccc1NC(=O)CSc1nnc([C@@H](N)Cc2c[nH]c3ccccc23)o1	-20	10	1	i	-1	0	2	-76
Cc1cc2c(s1)NC(=O)CN=C2c1cccs1	-22	1	-15	i	-4	1	2	-57
CC(C)CCC1(CCO)C(=O)NC(=S)NC1=O	-8	.	.	.	.	-4	5	-8
c1ccc(C2CC3CC(c4ccco4)N2O3)cc1 (stereo not given)	-4	1	-4	i	-10	-6	0	-86
O=C(c1ccc2c(c1)OCO2)C1CCCN(CC2CCCCC2)C1 (stereo not given)	.	4	-4	i	.	-3	-3	4
O=c1c2ccccc2nc(/C=C/c2ccc3c(c2)OCO3)n1-c1cccc(O)c1	.	-3	5	i	42	-1	-3	9
N=c1sccn1Cc1ccccc1F	-5	-11	-7	i	-9	-3	0	2
CC(C)(C)C(=O)N1Cc2cnnn2-c2ccccc2C1C#N (stereo not given)	-19	.	.	.	.	1	3	9
COc1ccc(C)cc1NC(=O)N1CCC2(CC1)OCCO2	.	-9	9	i	1	-2	1	-2
COC(=O)C1=C(c2ccc(Cl)c(C(F)(F)F)c2)C[C@@H]2CC[C@H]1N2C(=O)NCCCOC(C)C	-13	.	.	.	-1	-5	-4	.
O=C(CCN1C(=O)COc2ccccc21)N1CCC2(CC1)OCCO2	-10	-6	-4	i	-13	0	2	.
Cc1ccccc1CS(=O)(=O)Cc1ccc(C(=O)N2CCC3(CC2)OCCO3)o1	.	1	6	i	-4	2	0	.
CCOC(=O)C(O)(c1ccc(N=c2ccccn2C)cc1)C(F)(F)F (stereo not given)	.	8	-10	i	1	-4	1	-12
Cn1c(O)c(/C=C2\C=Nc3ccc(Br)cc32)c(=O)n(C)c1=O	-4	?	?	i	-22	5	3	6
Cc1nn(Cc2ccccc2)c(C)c1C=C1C(=O)NC(=S)NC1=O	.	1	11	i	-3	4	5	28
CN(C)c1ccc(C=C(C#N)C#N)cc1	-12	-9	2	i	2	1	-1	1
C=CCn1c(O)c(C(C)=NC2CC2)c(=O)[nH]c1=O	-11	-5	15	i	-6	-1	2	.
Cc1nn(Cc2ccccc2)c(C)c1C(=O)OCC(=O)NCc1ccco1	.	-3	6	i	-7	-1	1	.
Cc1cccc(-n2c(=S)[nH]c3ccccc3c2=O)n1	-15	5	2	i	1	-1	1	-11
O=c1[nH]c(O)c(C=Nc2ccccc2Sc2ccccc2)c(=O)[nH]1	.	-1	-10	i	-6	-1	-3	-6
CN(C)C(=O)Oc1ccc2c(c1)O/C(=C\c1ccc(Cl)cc1)C2=O	-8	5	-4	i	-3	-2	0	-34
CN1CC(C(=O)c2cccs2)C(c2ccc(Cl)cc2)C1 (stereo not given)	4	-2	0	i	-1	-4	1	2
CCCCc1nc2ccccc2c(=O)n1-c1ccc(Cl)cc1[N+](=O)[O-]	4	-10	-6	i	2	-7	-10	12
CC(=O)O[C@@]12CO[C@@H]1C[C@H](O)[C@@]1(C)C(=O)[C@H](O)C3=C(C)[C@@H](OC(=O)[C@H](O)[C@@H](NC(=O)c4ccccc4)c4ccccc4)C[C@@](O)([C@@H](OC(=O)c4ccccc4)C12)C3(C)C (stereo not given in full)	7	1	-12	i	60	0	-7	.
COc1ccc(-c2nc(CSCC(=O)N3CCC4(CC3)OCCO4)c(C)o2)cc1OC	.	6	-8	i	13	5	-1	-61
Cc1nc2ccccc2c(=O)n1-c1ccc(Br)cn1	-20	-6	-6	i	-15	5	6	-10
Cc1ccc(N=Nc2c(O)[nH]c(=O)[nH]c2=O)c([N+](=O)[O-])c1	-1	10	-4	i	-7	-2	-2	5
CC(C)n1c(O)c(C=NCc2cccnc2)c(=O)[nH]c1=S	.	-6	-8	i	2	1	-1	7
COC(=O)C1=C(C)NC(C)=C(C(=O)OC)C1c1ccccc1[N+](=O)[O-]	-1&1	-4	-17	i	8	-12	-5	-5
COc1ccccc1OP(=O)(Nc1ccc(Br)cc1)Oc1ccccc1OC	-27	1	-13	i	10	-4	-2	-47
Cc1cccc(N=Cc2c(O)n(-c3ccccc3C)c(=O)[nH]c2=O)c1	-11	6	5	i	-4	-3	-1	.
CCc1c(C)nc(N)nc1N1N=C1SCC#N	-10	-5	-11	i	11	3	1	-24
O=C(NC(C(Cl)Cl)N1CCOCC1)c1ccccc1 (stereo not given)	.	0	9	i	-2	4	5	5
CN1OC[C@@H]2COc3ccc4ccccc4c3[C@@H]21	.	21	-7	i	10	0	0	8
CN1CCc2nc3ccc(F)cc3c(C(N)=O)c2C1	-56	7	-2	i	-12	1	7	.
CN1CCN(c2ccc([N+](=O)[O-])c3no[n+]([O-])c23)CC1	18	?	?	i	104*	-216	-11	-256
O=S(=O)(c1ccccc1)N1CCCCC1c1cccnc1 (stereo not given)	.	10	-8	i	1	-3	1	.
Cc1ccc(S(=O)(=O)N(C)C/N=C(\N)N[N+](=O)[O-])cc1	.	12	-2	i	-13	0	1	1
O=c1[nH]c2ccccc2n1C1CCN(C(CCc2ccccc2)c2nnnn2C2CCCCC2)CC1 (stereo not given)	-20	.	.	.	.	-28	-26	-28
COC(=O)C1=C(c2ccccc2OCc2ccccc2)C[C@@H]2CC[C@H]1N2C(=O)NCc1ccc(Cl)cc1	-13	.	.	.	34	-6	-13	-16
CCC(=O)OC1(Cc2ccc(CC)cc2)CC(C)N(C)CC1C (stereo not given)	.	-11	-8	i	-13	-8	-5	9
CC(C)c1ccccc1NC1=NCCCS1	-4	9	-1	i	-8	-1	3	5
CCC(=NCc1ccco1)c1c(O)n(-c2ccc(Cl)cc2)c(=O)[nH]c1=O	-7	-4	-1	i	-20	.	.	-4
CCN(CC)CCCOC(=O)C(OC)(c1ccccc1)c1ccccc1	8	-4	-8	i	34	4	2	.
CC(=O)O[C@H]1C(=O)[C@@]2(C)C([C@H](OC(=O)c3ccccc3)[C@]3(O)C[C@H](OC(=O)[C@H](O)[C@@H](NC(=O)Cc4ccccc4)c4ccccc4)C(C)=C1C3(C)C)[C@]1(OC(C)=O)CO[C@@H]1C[C@@H]2O (stereo not given in full)	9	13	2	.	-6	-3	-11	.
Cn1c2ccccc2c2cnn(CC(=O)N3CCC4(CC3)OCCO4)c(=O)c21	.	-3	5	i	-5	.	.	.
CCN(CC)C(=O)c1ccc(NC(=O)c2ccc(-n3cncn3)c([N+](=O)[O-])c2)cc1	-19	.	.	i	-10	3	-2	1
COC(=O)C1=C(c2ccc(S(C)(=O)=O)cc2)C[C@@H]2CC[C@H]1N2C(=O)NCc1cccc2ccccc12	10	.	.	i	-9	1	0	-35
O=c1[nH]c(CN2CCNCC2)nc2ccccc12	-13	-10	9	i	16	-2	-1	.
Fc1ccc(N2Cc3ccccc3-n3nncc3C2)cc1	-9	.	.	.	.	7	5	-55

An excerpt from above in order of length of the SMILES, lowest first.
SMILES	Yeast UUG start	PABP polyA inh	eIF4H FP inh	Rce1 inhib	CSC inhib	MT1-MMP act inh	MT1-MMP act inh RFP	HIV Env fusion	others
CC(C)c1ccccc1NC1=NCCCS1	-4	9	-1	i	-8	-1	3	5
O=c1[nH]c(CN2CCNCC2)nc2ccccc12	-13	-10	9	i	16	-2	-1	.
COC(=O)C1=C(c2ccccc2OCc2ccccc2)C[C@@H]2CC[C@H]1N2C(=O)NCc1ccc(Cl)cc1	-13	.	.	.	34	-6	-13	-16

The list goes on.
SMILES	Yeast UUG start	PABP polyA inh	eIF4H FP inh	Rce1 inhib	CSC inhib	MT1-MMP act inh	MT1-MMP act inh RFP	HIV Env fusion	others
C(#CCN1CCOCC1)COCc1ccccc1	-5	6	1	i	.	4	4	.
CC(=O)OC(C)(C)/C=C/C(=O)C(C)(O)C1[C@H](O)C[C@@]2(C)C3CC=C4C(CC[C@@H](O)C4(C)C)[C@]3(CO)C(=O)C[C@]12C (stereo not given in full)	-10	5	-8	i	41	-28	-22	-40
CN(C)CC1Oc2ccccc2OC1(O)c1ccccc1 (stereo not given)	-22	6	4	i	.	-3	-10	-47
CN1CCN(c2nc3c(c(=O)[nH]2)CCC3)CC1	-10	-2	10	i	-13	1	5	-30
O=C1NC(=S)N(c2ccc(Cl)cc2)C(=O)/C1=C/N1CCN(C(=O)c2ccco2)CC1	.	49*	79	i	0	-12	11	.	eIF4H FP inh retest=26;PABP polyA inh retest=59*
O=C1C2CCCN2C(c2cccc(Cl)c2)N1c1ccccn1 (stereo not given)	-8	2	-5	i	-7	2	4	-43
O=C(Cn1ncc2ccsc2c1=O)N1CCC2(CC1)OCCO2	3	-1	0	i	-12	-22	-7	.
CC(=O)OC1C2CCC1C(N1CCCC1)CC2 (stereo not given)	-11	10	-2	i	-8	0	4	.
CCNc1cc(N2CCNCC2)ccc1[N+](=O)[O-]	.	1	-6	i	-17	.	.	.
N#C/C(N)=C(/N)C#N	-11	.	.	.	-12	1	5	.
Fc1ccc(C2=CCN(C(c3cccs3)c3nnnn3CCc3ccccc3)CC2)cc1 (stereo not given)	-5	30	4	i	7	-5	-8	-72
NC(=O)c1ccc(N)nc1	-8	.	.	.	.	0	3	37
O=C(Nc1ccccc1)N1CCC2(CC1)OCCO2	-16	2	-2	i	-11	1	3	0
CCC(=NCc1cc(OC)cc(OC)c1)c1c(O)[nH]c(=O)[nH]c1=O	.	-10	4	i	-3	-4	-3	17
COCCCN1Cc2ccccc2C1=N	-1	2	-1	i	-2	2	3	.
CCn1c(O)c(/C=N/NC(=O)c2ccccc2)c(=O)n(CC)c1=S	-8	-9	27	.	-4	-2	-5	-8
COC(=O)C1=C(c2cc3ccccc3s2)C[C@@H]2CC[C@H]1N2C(=O)NCc1ccc(C(F)(F)F)cc1	0	.	.	i	60	-4	-15	3
Cc1cc(N(CCCl)CCCl)ccc1C=NNC(=O)Cc1cc(=O)oc2cc(O)ccc12	-8	.	.	.	.	0	-1	10
OCc1cnc[nH]1	-2	-2	-5	i	-2	6	8	.
CC(C)Oc1ccc(C2C(C#N)=C(N)Oc3c2c(=O)oc2ccccc32)cc1 (stereo not given)	-36	28	-2	i	-3	0	0	-47
Cc1cccc(OC(=O)N2CCOCC2)c1	-15	0	-2	i	.	4	5	-28
CC(N)Cc1c[nH]c2cc3c(cc12)OCCO3 (stereo not given)	1	-5	-3	i	-2	2	6	.
